Compound activity deposited in PubChem by several laboratories.
Vif TR-FRET: inhibitors of Vif binding to APOBEC3G peptide, primary screen, biochemical, TR-FRET, GST-Vif 1-94, biotin-A3G peptide, dose response retest (AID 1117319) | TR-FRET GST-Vif / biotin-A3G peptide binding; higher % means a stronger effect; test concentration not given here; strong numbers were not always called active | one-dose inhibition, %; IC50 in µM for titrated hits | 260,000 tested, 0.57% active;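 active = above the screen mean plus three standard deviations and confirmed in dose response; inconclusive = results disagree or hit not tested in dose response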;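 note: Vif residues 1-94 fused to GST binding biotinylated APOBEC3G peptide 110-148; 0% = full assay without inhibitor and 100% = GST in place of GST-Vif; retest series ran down from 100 µM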
LANA-H2B inh: blockers of LANA interaction with H2A/H2B – biochemical, FP readout, HTS, primary screen. Protein LANA1 (Human herpesvirus 8 type P (isolate GK18)), Q9QR71. cell-free LANA-H2A/H2B peptide, fluorescence polarization. inhibition, % (test concentration not listed). 320,000 tested, 0.6% active; in the data active = inhibition mostly above about 10%, no sharp cut-off; inactive = mostly below about 6.7%;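 note: stock transfer was 7.5 nL into about 10 µL; 0% = median of vehicle wells and 100% = median of positive control wells; one replicate is shown; the record names a cut of 25% in any replicate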
Beta2AR agonist: beta2AR agonists driving receptor internalization, primary screen, cell-based, FAP fluorogen, flow cytometry | Beta-2 adrenergic receptor (Homo sapiens), P07550 | Am2.2-beta2AR cells; reference of the scale not given here | response, % (no concentration beside the values) | 340,000 tested, 0.43% active | AID 504454, 2011;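 active = response above a set limit, near 3 SD of response in nonfluorescent compounds, cut at about 42% in these data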;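 note: stock transfer was 100 nL into about 11 µL; a reference agonist was the positive control; negative values mostly stem from fluorescent compounds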
Target sequence (P07550 whole entry, looked up): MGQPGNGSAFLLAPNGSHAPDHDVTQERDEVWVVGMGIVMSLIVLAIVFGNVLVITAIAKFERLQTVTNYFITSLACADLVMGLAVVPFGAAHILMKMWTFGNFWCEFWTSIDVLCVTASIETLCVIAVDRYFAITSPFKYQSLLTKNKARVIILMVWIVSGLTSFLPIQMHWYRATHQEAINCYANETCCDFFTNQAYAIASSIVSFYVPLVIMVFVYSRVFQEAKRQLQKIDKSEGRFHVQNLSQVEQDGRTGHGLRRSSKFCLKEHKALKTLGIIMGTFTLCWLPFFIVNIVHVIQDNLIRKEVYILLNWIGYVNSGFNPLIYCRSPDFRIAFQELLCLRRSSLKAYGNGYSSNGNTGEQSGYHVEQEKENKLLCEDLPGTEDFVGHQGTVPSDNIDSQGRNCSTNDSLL
Ecoli growth: E. coli growth inhibition, primary screen, OD600; OD600 absorbance (concentration not given with the values); 330,000 tested, 0.21% active; Escherichia coli growth, 23 h; stronger effect = lower value;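 active = OD600 absorbance below the run mean of sample wells minus 3.6 SD, in any replicate, cut at about 0.56 in these data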;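 note: stock transfer was 300 nL into about 60 µL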
A1 inh: caspase 3/7 activation in MEF A1-2A-BIM cells, primary screen, A1 inhibitor project, cell-based, luminescence, HTS | Caspase-Glo 3/7 luminescence, 3 h; percent of clofoctol response, vehicle zero | caspase activation, % (no concentration beside the values) | 330,000 tested, 0.066% active;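 active = over half of replicate activation scores above 10%, or exactly half above 10 with the replicate mean above 10; inconclusive = replicate mean below 10 yet half the replicates above 10; inactive = over half of replicates below 10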;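 note: wells of about 30 µL received 50 nL stock; many hits fall short of the cut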
HNF4A DNA FP: change in binding of human HNF4A to DNA, primary screen, biochemical, fluorescence polarization, FITC-DNA; AID 1224865, 2016; Hepatocyte nuclear factor 4-alpha (Homo sapiens), P41235; activity change, % at 10 µM; 360,000 tested, 0.3% active; 1 h; in the data active = activity change above about 30%, passing the limit was not always enough;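 note: controls were the assay level and a saturating level of protein; the project sought stronger binding though the title names inhibitors; some compounds called inactive have numbers as strong as hits; positive values seem to mean higher polarization but the record does not say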
UCH37 inh: inhibitors of human UCH37 deubiquitinase, primary screen, biochemical, Ub-AMC cleavage, fluorescence; Ubiquitin carboxyl-terminal hydrolase isozyme L5 (Homo sapiens), Q9Y5K5; purified proteasome/UCH37; inhibition, % (concentration not given with the values); 330,000 tested, 0.33% active; AID 588478, 2011;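 active = mean of two replicates above 20%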;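 note: 0% = compound-free wells with enzyme and 100% = wells lacking proteasome; stock transfer was 100 nL into about 20 µL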
Target sequence (Q9Y5K5 whole entry, looked up): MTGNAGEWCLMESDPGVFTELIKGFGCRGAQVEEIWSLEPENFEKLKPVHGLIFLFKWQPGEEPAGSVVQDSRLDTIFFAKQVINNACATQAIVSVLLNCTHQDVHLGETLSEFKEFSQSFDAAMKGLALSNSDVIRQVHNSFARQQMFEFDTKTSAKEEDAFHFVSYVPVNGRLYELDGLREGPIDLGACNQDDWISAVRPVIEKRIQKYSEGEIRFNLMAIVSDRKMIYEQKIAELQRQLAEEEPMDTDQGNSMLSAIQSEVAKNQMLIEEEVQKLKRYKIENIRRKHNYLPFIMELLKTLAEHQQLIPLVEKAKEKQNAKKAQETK
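Assay system: Proteasome-bound UCH37. Buffer or medium: pH 7.4 Tris-HCl (50 mM) with ovalbumin, ATP-MgCl2, DTT. Incubation: 30 min preincubation with enzyme, 25 min cleavage at room temperature. Measured by: fluorescence, ex 355 nm, em 460 nm. Read-out basis: percent inhibition. Control set: wells without proteasome as full block, compound-free enzyme plus substrate as uninhibited.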
Starred values were filed as active, the others as inactive; i = inactive; u = inconclusive; x = not tested or not shown; & = joins results of further samples.

Every second line gives: Vif TR-FRET	LANA-H2B inh	Beta2AR agonist	Ecoli growth	A1 inh	HNF4A DNA FP	UCH37 inh
> O=C(COc1ccc(F)c(Cl)c1)N1CCN(c2ccccn2)CC1
→ x	-6.7	1	0.71	-0.4	3.3	-0.2
> COc1ccc(OCCSc2nnc(C)n2-c2ccccc2)cc1
→ 6%	0.8	-4	0.72	0.5	-1.6	-2.7
> CC1(C)Cc2c(cnn2-c2ccc(F)cc2)C(NC(=O)CCN2CCCCO2)C1 (stereo not given)
→ x	-3.9	-1	0.62	2.7	-4.8	-1.1
> COc1ccc(N(C)S(=O)(=O)c2cccc(C(=O)NC3CCCC3)c2)cc1
→ -7%	2.9	3	x	0.0	-1.0	x
> CC(=O)c1c(N2CCN(Cc3ccccc3)CC2)nc(=S)n(-c2ccccc2)c1C
→ x	2.3	1	0.7	0.5	8.8	-2.8
> c1ccc(C2OC3c4cccc5cccc(c45)C3N2c2ccccc2)cc1 (stereo not given)
→ -1%	8.2	3	0.69	0.1	0.0	5.7
> Cc1ccc(C)c(NC(=O)CN(C)C(=O)c2cc3ccccc3o2)c1
→ -2%	1.4	4	0.71	2.3	-2.0	-3.0
> COc1ccc(NC(=O)C2CCCN2S(=O)(=O)c2ccc(F)cc2)cc1 (stereo not given)
→ 2%	3.7	5	0.73	2.0	-0.1	-1.0
> COc1ccccc1CNC(=O)c1ccc(NS(=O)(=O)c2c(C)noc2C)cc1
→ 0%	-10	5	0.68	-0.3	2.5	0.9
> c1ccc(CN2CCC3(CC2)Nc2ccccc2S3)cc1
→ -21%	9.7	-2	0.64	-0.1	4.0	3.1
> COc1ccc(Cc2nnc(NC(=O)CSc3ccccc3)s2)cc1OC
→ 5%	3.5	-5	0.71	0.8	-1.2	2.2
> Cc1csc(Nc2ccc(Cl)cc2)n1
→ -7%	-2.3	-1	0.7	-1.5	-3.2	2.9
> COC(=O)c1ccccc1NC(=O)NCCc1ccccc1OC
→ -4%	-0.4	-12	x	-2.4	4.6	x
> COC(=O)c1cc(CN2CCN(c3ccccc3)CC2)ccc1O
→ 1%	2.8	0	0.68	-1.1	9.2	1.7
> CCCCN1C(=O)c2ccc(C(=O)Nc3ccccc3N3CCOCC3)cc2C1=O
→ x	2.8	-13	0.71	0.7	-0.2	2.4
> N=c1c(C(=O)NC2CCCCC2)cc2c(=O)n3ccccc3nc2n1Cc1cccnc1
→ x	-1.0	-5	0.71	0.4	1.3	i
> COc1ccc(C(=O)NC2CCN(C(=S)Nc3ccc(C)cc3)CC2)cc1
→ 0%	-0.7	0	0.67	0.3	0.2	-0.8
> CCOC(=O)C1CCN(c2c(Nc3ccc4c(c3)OCCO4)c(=O)c2=O)CC1
→ 0%	x	3	0.72	x	2.1	13
> C=CCOC(=O)C1=C[C@@H](c2ccc3c(c2)OCO3)C[C@@H](OCCCCO)O1
→ x	0.5	0	x	1.0	0.8	-0.2
> O=c1cc(CN2CCOCC2)c2ccc(O)c(O)c2o1
→ 1%	0.2	0	0.65	-0.2	-1.6	5.6
> CN1CCN(C(=O)C2=C[C@H](C3CCCCC3)C[C@H](OCc3ccc(CO)cc3)O2)CC1
→ 5%	0.5	-3	x	0.9	-0.7	2.5
> CCOc1ccc(S(=O)(=O)NCCC(=O)NCCOc2ccccc2OC)cc1
→ -1%	x	2	0.71	0.5	-0.2	4.2
> CCCSc1nnc(CSc2nc3nc(C)cc(C)n3n2)o1
→ -4%	0.9	-16	0.71	0.4	-3.3	2.2
> CCOc1ccc(C(=O)COC(=O)CNC(=O)C2CCCCC2)cc1
→ x	-4.1	3	0.7	0.9	2.1	-1.0
> COc1ccc(NC(C)=O)c([N+](=O)[O-])c1[N+](=O)[O-]
→ -5%	x	2	0.66	x	1.9	5.6
> S=c1[nH]ccn1-c1cccc(Cl)c1Cl
→ -1%	3.4	-5	0.65	0.1	0.1	0.5
> NC(=O)c1ccccc1OCc1cccc2ccccc12
→ 2%	0.2	1	0.68	0.1	-0.7	1.8
> O=C(O)c1ccccc1-c1ccccc1C(=O)Nc1cccc(Br)c1
→ 22%	6.5	-3	0.68	0.8	-1.2	5.2
> O=S(=O)(c1ccc(Cl)nc1)N1CCOCC1
→ x	4.9	-6	0.7	-0.2	-3.6	1.5
> CCOc1ccccc1N1CCN(C(=O)c2c(Cl)cnn2C)CC1
→ x	-4.3	11	0.69	u	0.2	4.8
> O=c1cc(CSCc2ccc(Cl)cc2)[nH]c(=O)[nH]1
→ x	4.7	-4	0.7	0.8	2.7	4.5
> CN(C)Cc1ccc(CNC(=O)c2ccc(Cl)c(S(=O)(=O)NC3CC3)c2)cc1
→ x	3.0	-1	0.64	-0.2	6.2	-0.3
> Cc1cc(C(=O)Nn2c(C)nc3ccccc3c2=O)ccc1[N+](=O)[O-]
→ -5%	2.1	0	0.7	u	3.0	2.0
> CCCOc1cccc(NC(=O)OC2CCN(C)CC2)c1
→ -2%	8.5	-4	0.7	0.6	-1.2	6.3
> Cc1cccnc1NC(=O)c1ccc(COc2ccccc2)o1
→ x	0.6	25	0.71	0.3	-3.7	3.8
> Cc1cccc(N2CC(C(=O)OCC(=O)Nc3sccc3C(N)=O)CC2=O)c1C (stereo not given)
→ -1%	6.5	1	0.68	-0.6	0.4	-1.7
> CCCn1c(N)c(C(=O)CSc2nc3ccccc3n2CCC#N)c(=O)n(C)c1=O
→ 5%	0.5	-18	0.77	-0.3	2.9	5.5
> Cc1ccc(C(=O)c2cc3c(cc2N)OCCO3)cc1
→ 1%	-2.7	-5	0.77	-0.8	0.1	0.6
> COC(CNC(=O)C1CC(=O)N(CCc2ccc(C)cc2)C1)OC (stereo not given)
→ -4%	2.2	3	0.68	-0.3	-3.0	2.5
> O=S(=O)(Nc1cccc(-c2nnco2)c1)c1ccc(Cl)cc1
→ 0%	0.4	7	0.64	0.4	-2.7	2.6
> CCNC(=S)N1CCC(C(=O)c2ccc3c(c2)OCCO3)CC1
→ -4%	-3.9	2	0.69	0.2	-0.2	2.5
> Cc1ccc(NS(=O)(=O)c2ccc(C(=O)NCC(c3ccco3)N(C)C)cc2)cc1 (stereo not given)
→ x	-9.2	11	0.66	0.3	1.3	-1.2
> CC(C)(C)[C@H]1C=C(C(=O)NC2CC2)O[C@@H](OCCCCO)C1
→ 2%	4.4	-5	x	0.0	0.0	3.7
> O=C(N/N=C/c1cnc2ccccc2n1)c1cccc(F)c1
→ -7%	2.2	-12	x	-3.8	1.6	x
> COc1ccc(NS(=O)(=O)c2ccc(C(=O)Nc3c(C)n(C)n(-c4ccccc4)c3=O)cc2)cc1
→ -1%	3.0	-67	0.69	-0.1	-0.6	0.7
> CC(=O)Nc1cccc(C(=O)/C=C/c2ccc(/C=C/C(=O)c3cccc(NC(C)=O)c3)cc2)c1
→ 11%	-12	x	x	-0.3	x	x
> CCOC(CCn1ccc(O)c(Cc2ccc(Cl)cc2)c1=O)OCC
→ 2%	-1.4	2	0.66	0.7	-1.1	2.0
> CCOC(=O)NC(=O)/C(C=Nc1ccc(Cl)cc1)=C(\C)O
→ 5%	1.1	0	0.69	0.5	-1.5	4.1
> COc1ccc(-c2noc(CN(C)C3CCOCC3)n2)cc1
→ x	-1.5	4	0.69	0.3	3.0	4.4
> Cc1cc(C(=O)COC(=O)C2=NNC(=O)CC2)c(C)n1-c1ccccc1
→ -1%	x	-5	0.67	x	0.0	3.5
> Cc1ccc(C)c(OCCCC(=O)Nc2nccs2)c1
→ 5%	12	1	0.73	1.5	1.3	1.2
> CCOC(=O)C1CCN(C(=O)COc2ccc(N(C)S(=O)(=O)c3cccs3)cc2)CC1
→ 1%	-6.0	3	0.74	0.6	1.4	1.9
> CCC(=O)Nc1ccc(C(=O)CSc2nnc(-c3ccc(O)cc3)n2CC2CCCO2)cc1OC (stereo not given)
→ 0%&4%	-8.8	-12	0.65	-2.1	1.5	-1.1
> C#CC1(NC(=O)NC(C)C)CCCCC1
→ -7%	4.1	5	0.64	1.9	1.4	-0.2
> C=C(C)C1CC=C(CN2CCN(Cc3ccccc3)CC2)CC1 (stereo not given)
→ x	0.8	-2	0.66	-0.4	2.3	2.8
> CC(C)COCC1CC2(CC(C)C(=O)CC2=O)C(=O)O1 (stereo not given)
→ 21%	-2.5	5	0.71	0.3	-0.7	2.4
> Cc1ccc(C(=O)Nc2cccnc2Oc2ccc(Cl)cc2)cc1
→ x	-0.9	7	0.68	1.5	-4.2	5.5
> CCOC(=O)/C=C/C(=O)Nc1ccccc1-c1ccccc1NC(=O)/C=C/C(=O)OCC
→ x	1.3	25	0.72	-0.6	-3.1	1.5
> CCOC(=O)/C(C#N)=C/c1c(N2CCN(c3ccccc3)CC2)nc2ccccn2c1=O
→ x	4.5	8	0.69	0.4	6.2	3.7
> Cc1cc(C(=O)Nc2ccon2)ccc1[N+](=O)[O-]
→ x	-12	-2	0.62	-3.4	0.0	6.2

Following part.
Every second line gives: Vif TR-FRET	LANA-H2B inh	Beta2AR agonist	Ecoli growth	A1 inh	HNF4A DNA FP	UCH37 inh
> COc1ccc(NC(=O)c2cc(C)no2)cc1Cl
→ x	2.5	-4	0.66	0.7	-1.4	-1.4
> O=C(CSCc1nc2ccccc2[nH]1)N1CCN(c2ccc(F)cc2)CC1
→ 8%	7.4	9	0.73	-0.9	-1.2	3.3
> Cc1ccc(NC(=O)c2cc3ccccc3cc2O)cc1
→ -5%	5.6	18	0.62	-6.2	-0.9	-4.4
> Cc1ccccc1NC(=O)C1CCCN1/C=C/C(=O)C(F)(F)F (stereo not given)
→ x	-4.9	7	0.69	0.4	1.5	9.5
> Cc1noc(/C=C/c2ccco2)c1S(=O)(=O)N1CCC(C(=O)NC(C)c2ccccc2)CC1 (stereo not given)
→ 7%	-4.5	-5	0.79	0.0	21	2.7
> O=C(Nc1ccc(Cl)cn1)c1ccc(Oc2ccccc2)cc1
→ 23%	4.2	5	x	-7.5	0.0	x
> O=c1[nH]c(-c2ccccc2)nc2sc(-c3ccccc3)cc12
→ 9%	-0.4	-4	0.73	-1.3	-3.3	i
> O=C(CCS(=O)(=O)c1cc(Br)cc2c1N(C(=O)C1CC1)CC2)NCc1ccco1
→ 8%	x	0	0.73	x	1.3	2.6
> Cc1cc(N2CCCC2=O)cc(C)c1S(=O)(=O)NCCOc1ccc(C(C)(C)C)cc1
→ 2%	-3.5	-7	0.73	0.0	1.1	0.3
> Cc1ccc(C2(C(F)(F)F)N=C3Sc4cc(C)ccc4N3C(=O)N2)cc1 (stereo not given)
→ -1%	-1.6	x	0.67	-1.0	x	-2.1
> O=C(CSc1ccc(-c2ccccn2)nn1)N1CCc2ccccc21
→ -164%	-1.4	-11	0.68	-1.0	-0.9	3.4
> CCOc1ccccc1NC(=O)CSc1nccn1-c1ccccc1
→ -3%	2.3	-1	0.73	-0.7	-1.6	1.3
> Cc1nc(C)c(/C(O)=C\c2nc3ccc([N+](=O)[O-])cc3oc2=O)o1
→ 4%	-8.1	-1	0.66	0.2	8.9	18
> Cc1ccc(CNC(=O)c2ccc3c(=O)c(O)c(-c4ccc(C)cc4)[nH]c3c2)cc1
→ x	-1.4	-2	0.64	-0.9	-1.3	-7.0
